Source: PubChem
Hedgehog inh = blocks Sonic Hedgehog signaling. Shh-LIGHT2 Gli-luciferase reporter, 30 h. inhibition, % (test concentration not listed). 2.1% of 22,000 active. AID 2313;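 active = replicate mean of 65% or more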;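 note: pathway switched on by Shh-conditioned medium diluted 1 in 25 in low serum; 100 nL library stock added to about 40 µL; 0% = median of neutral wells and 100% = positive control level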
PD-1 reversal = activators reversing PD-1 mediated T-cell inhibition; activation, % (test concentration not listed); primary human CD4 T cells, PD-L1 beads, CellTiter-Glo 96 h; 29,000 tested, under 10 active; AID 2316;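 active = replicate mean of 50% or more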;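 note: 0% = median vehicle wells and 100% = positive control; 100 nL library stock added to about 50 µL; numbers are from one replicate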
YB-1 expr inh = YB-1 expression inhibition; AID 434959; U2OS, qRT-PCR YB-1 vs CDIP delta delta Cp, 16 h; active compounds read high; zero = DMSO, each unit about twofold; 0.37% of 30,000 active; delta delta Cp (YB-1 minus CDIP) (no concentration beside the values);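 active = delta delta Cp rounded down to an integer at or above 3, about 3 SD of DMSO wells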;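 note: higher means less YB-1 transcript or more CDIP transcript relative to DMSO; stock transfer was 100 nL into about 100 µL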
MITF inh = MITF inhibition; TRPM1 promoter luciferase, luminescence, 24 h; inhibition, % (concentration not given with the values); 0.28% of 37,000 active; AID 2240;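 active = most replicates at 85% or more, or half of them and the mean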;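 note: human melanocyte line stably carrying TRPM1 promoter luciferase reporter; 0% = vehicle wells and 100% = a positive control; the first replicate is given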
Numbers without * were called inactive; x = no result given.

No.	smiles	MITF inh	YB-1 expr inh	PD-1 reversal	Hedgehog inh
1	Cc1ccc(S(=O)(=O)Nc2ccc3c(c2)C(=O)N([C@H](C)CO)C[C@H](C)[C@H](CN(C)Cc2ccc4c(c2)OCO4)OCCCC[C@@H](C)O3)cc1	-2	-0.0037	-1.8	28
2	Cc1noc(C)c1S(=O)(=O)Nc1ccc2c(c1)C(=O)N([C@@H](C)CO)C[C@H](C)[C@H](CN(C)C(=O)Nc1cccc3ccccc13)O2	-14	-0.68	-0.4	11
3	C[C@H]1CN([C@@H](C)CO)C(=O)c2cc(NC(=O)Nc3ccc(C(F)(F)F)cc3)ccc2O[C@H]1CN(C)C(=O)Nc1ccc(C(F)(F)F)cc1	41	-0.25	-2.0	32
4	COc1ccc(Br)cc1CN1CCN(Cc2c[nH]c3ccccc23)CC1	7	x	-8.2	x
5	C[C@H](CO)N1C[C@H](C)[C@H](CN(C)S(=O)(=O)c2cn(C)cn2)Oc2ccc(NC(=O)CCC(F)(F)F)cc2C1=O	-4	0.13	1.0	x
6	C[C@@H]1CN([C@H](C)CO)C(=O)c2cccc(NC(=O)C3CCOCC3)c2O[C@@H]1CN(C)C(=O)Nc1ccc(F)cc1	-14	0.26	1.0	29
7	C[C@H]1CN([C@@H](C)CO)C(=O)c2cc(NC(=O)Cc3ccccc3)ccc2O[C@@H]1CN(C)C(=O)Nc1ccc(F)cc1	-9	-0.35	0.8	-6
8	C[C@H](CO)N1C[C@H](C)[C@H](CN(C)C(=O)Nc2cccc3ccccc23)Oc2c(NC(=O)C3CCCCC3)cccc2C1=O	-4	-0.45	-0.6	1
9	CC1(C)Cc2ccccc2C(Nc2nc(-c3ccccc3)cs2)=N1	-18	0.16	0.5	-75
10	Cc1sc2ncn(CC(=O)NCc3ccco3)c(=O)c2c1-c1ccccc1	0	x	-0.5	x
11	Cc1noc(C)c1S(=O)(=O)N(C)C[C@H]1Oc2ccc(NC(=O)Nc3ccc(F)cc3)cc2CC(=O)N([C@@H](C)CO)C[C@H]1C	-10	-0.25	x	-7
12	CCCc1[nH]c(Br)nc1-c1ccccc1	11	-0.35	-0.6	x
13	C#CCN(C)CCCOc1ccc(Cl)cc1Cl	-74	-0.2	x	13
14	COc1cccc(N(CC(=O)Nc2cccc(Cl)c2)S(C)(=O)=O)c1	-16	x	2.1	x
15	C[C@@H]1CCCCO[C@H](CN(C)C(=O)Nc2ccc(F)cc2)[C@@H](C)CN([C@H](C)CO)C(=O)c2cc(NC(=O)Nc3ccccc3)ccc2O1	8	-0.12	-1.4	6
16	CC(C)NC(=O)N(C)C[C@H]1Oc2ccc(NC(=O)NC3CCCCC3)cc2CC(=O)N([C@H](C)CO)C[C@H]1C	-13	0.17	x	-25
17	CCOc1ccccc1NC(=O)CN1C(=O)c2cccc3cccc1c23	31	x	0.1	x
18	CC(Sc1nc(=O)cc(N)n1-c1ccccc1)C(=O)Nc1ccc(Cl)cc1 (stereo not drawn)	-13	x	-1.1	x
19	C[C@@H]1CN([C@H](C)CO)C(=O)c2cccc(NC(=O)Nc3ccc(F)cc3)c2O[C@H]1CN(C)C(=O)Nc1ccc2c(c1)OCO2	-3	0.081	1.8	-20
20	CN(C)C(=S)SCC(=O)c1ccc(Cl)cc1	-48	-0.015	1.2	-95
21	C[C@H](CO)N1C[C@H](C)[C@@H](CN(C)C(=O)Nc2ccc(F)cc2)Oc2c(NC(=O)NC3CCCCC3)cccc2C1=O	-4	0.058	-1.6	12
22	CC(=O)c1ccc(NC(=O)Cn2cnc3c(sc4nc5c(cc43)COC(C)(C)C5)c2=O)cc1	-82	x	1.2	x
23	CN(C)c1ccc(/C=C(\C#N)C(N)=C(C#N)C#N)cc1	1	0.33	-0.4	x
24	COc1ccc(NC(=O)N(C)C[C@H]2Oc3ccc(NS(=O)(=O)c4ccc(C)cc4)cc3C(=O)N([C@@H](C)CO)C[C@@H]2C)cc1	-9	-0.19	2.1	x
25	Cc1ccc(S(=O)(=O)N(C)C[C@@H]2Oc3ccc(NC(=O)Cc4cn(C)c5ccccc45)cc3CC(=O)N([C@H](C)CO)C[C@H]2C)cc1	12	0.31	-1.2	10
26	COc1ccc(NC(=O)N(C)C[C@H]2Oc3ccc(NS(=O)(=O)c4c(C)noc4C)cc3CC(=O)N([C@H](C)CO)C[C@H]2C)cc1	-3	0.23	x	-11
27	CNc1ccccc1C(=O)N1CCc2c([nH]c3ccccc23)C1=O	-13	-0.24	x	21
28	Cc1noc(C)c1NC(=O)Nc1ccc2c(c1)C(=O)N([C@H](C)CO)C[C@@H](C)[C@H](CN(C)C(=O)Nc1c(C)noc1C)O2	-8	0.066	x	6
29	CN(CCC#N)C(=S)Nc1ccc(F)cc1	1	-0.58	0.3	x
30	C[C@H]1CN([C@@H](C)CO)C(=O)Cc2cc(NC(=O)Cc3ccccc3)ccc2O[C@H]1CN(C)Cc1ccc(C(F)(F)F)cc1	-2	-0.27	-1.0	-11
31	NC(=O)CN1C(=O)C(O)(CC(=O)c2cccnc2)c2ccccc21 (stereo not drawn)	10	x	7.7	x
32	COc1ccc(CN(C)C[C@@H]2Oc3ccc(NC(=O)Nc4ccc(OC)cc4)cc3C(=O)N([C@@H](C)CO)C[C@@H]2C)cc1	-3	0.2	-0.9	-7
33	CC(=O)Nc1ccccc1NC(=O)COc1ccc([N+](=O)[O-])cc1	-14	x	0.9	x
34	CC(C)Nc1nc(SCC(=O)Nc2ccccc2)nc(N2CCOCC2)n1	17	x	-0.5	x
35	CN(C)c1oc(-c2ccc(Cl)cc2)nc1C#N	-1	-0.36	0.7	-1
36	COc1ccc(S(=O)(=O)Nc2cccc3c2O[C@H](CN(C)S(=O)(=O)c2ccc(C)cc2)[C@@H](C)CN([C@H](C)CO)C3=O)cc1	-9	-0.18	-1.0	16
37	C[C@H]1CN([C@@H](C)CO)C(=O)c2cccc(NC(=O)C3CCCCC3)c2O[C@@H]1CN(C)Cc1ccc2c(c1)OCO2	8	-0.4	2.0	-28
38	O=C(Nc1ccc(S(=O)(=O)Nc2ccccn2)cc1)Nc1ccc(Cl)c(Cl)c1	8	x	1.0	x
39	C[C@H](CO)N1C[C@H](C)[C@H](CN(C)CC2CCCCC2)Oc2ccc(NC(=O)c3ccncc3)cc2CC1=O	-4	-0.0068	x	x
40	C[C@H]1CN([C@@H](C)CO)C(=O)Cc2cc(NC(=O)Nc3ccc(F)cc3)ccc2O[C@H]1CN(C)C(=O)Nc1cccc2ccccc12	-7	-0.047	x	-14
41	C[C@@H]1CN([C@H](C)CO)C(=O)c2cccc(NC(=O)NC3CCCCC3)c2O[C@@H]1CN(C)Cc1ccc(Oc2ccccc2)cc1	2	-0.49	-1.7	7
42	O=C(CCN1C(=O)c2ccccc2S1(=O)=O)Nc1ccc2c(c1)OCCO2	-19	x	1.5	x
43	COc1ccc(NC(=O)COc2ccccc2Cl)cc1NC(=O)c1ccco1	-31	x	-1.0	x
44	COc1ccc([C@H]2OC[C@H]3[C@@H]2CO[C@@H]3c2ccc(O[C@@H]3O[C@H](CO)C(O)[C@H](O)[C@H]3O)c(OC)c2)cc1OC (stereo partly drawn)	-3	0.18	3.6	-21
45	C[C@H](CO)N1C[C@H](C)[C@H](CN(C)Cc2ccc(Cl)c(Cl)c2)Oc2c(NC(=O)Nc3ccc(F)cc3)cccc2C1=O	37	-0.59	-3.1	63
46	C[C@H](CO)N1C[C@H](C)[C@H](CN(C)C(=O)Nc2cccc3ccccc23)Oc2ccc(NC(=O)Nc3ccccc3)cc2C1=O	-2	-0.41	0.6	5
47	COC(=O)c1cc(OC)c(OC)cc1NC(=O)Cc1ccccc1[N+](=O)[O-]	11	x	-2.3	x
48	CNC[C@H]1Oc2ccc(NC(=O)NC(C)C)cc2CC(=O)N([C@H](C)CO)C[C@H]1C	4	-0.019	1.0	4
49	CCCCC/C=C/C=C/C(O)CCCCCCCC(=O)O (stereo not drawn)	14	0.73	0.0	26
50	C[C@@H]1CN([C@H](C)CO)C(=O)c2cc(NS(=O)(=O)c3cccs3)ccc2O[C@@H]1CN(C)S(=O)(=O)c1cccs1	-19	-0.1	0.8	x
51	C[C@H](CO)N1C[C@H](C)[C@H](CN(C)C(=O)Nc2ccc(C(F)(F)F)cc2)Oc2ccc(NC(=O)Cc3ccccc3)cc2CC1=O	13	-0.53	0.8	0
52	C[C@@H]1CN([C@H](C)CO)C(=O)Cc2cc(NS(=O)(=O)c3ccccc3)ccc2O[C@@H]1CN(C)C	-4	-0.0094	2.6	-19
53	Cc1noc(C)c1NC(=O)Nc1ccc2c(c1)C(=O)N([C@H](C)CO)C[C@H](C)[C@@H](CN(C)Cc1ccc(C(=O)O)cc1)O2	-7	-0.18	1.0	-11
54	C[C@@H]1CCCCO[C@@H](CN(C)C)[C@@H](C)CN([C@H](C)CO)C(=O)c2cc(NC(=O)CCC(F)(F)F)ccc2O1	-13	0.012	3.2	44
55	COc1ccc(S(=O)(=O)Nc2cccc3c2O[C@@H](CN(C)C(=O)Nc2cccc4ccccc24)[C@@H](C)CN([C@H](C)CO)C3=O)cc1	7	-0.47	0.8	50
56	C[C@@H]1CCCCO[C@H](CN(C)S(=O)(=O)c2ccccc2)[C@@H](C)CN([C@H](C)CO)C(=O)c2cc(N(C)C)ccc2O1	5	0.17	-0.3	-7
57	C[C@H]1CN([C@@H](C)CO)C(=O)c2cc(NC(=O)Cc3ccccc3)ccc2O[C@@H]1CN(C)Cc1ccc2c(c1)OCO2	-2	0.52	-0.9	-7
58	COc1ccc(S(=O)(=O)N(C)C[C@@H]2Oc3c(NC(=O)Nc4cccc5ccccc45)cccc3C(=O)N([C@@H](C)CO)C[C@H]2C)cc1	22	0.044	1.1	3
59	Cc1nnc(SCC(=O)Nc2ccc(F)c(F)c2F)s1	-8	x	1.2	x
60	FC(F)(F)c1ccccc1-n1ccnc1	-20	-0.11	x	-36

Next section; it opens with the 4 that closed the last part.
No.	smiles	MITF inh	YB-1 expr inh	PD-1 reversal	Hedgehog inh
57	C[C@H]1CN([C@@H](C)CO)C(=O)c2cc(NC(=O)Cc3ccccc3)ccc2O[C@@H]1CN(C)Cc1ccc2c(c1)OCO2	-2	0.52	-0.9	-7
58	COc1ccc(S(=O)(=O)N(C)C[C@@H]2Oc3c(NC(=O)Nc4cccc5ccccc45)cccc3C(=O)N([C@@H](C)CO)C[C@H]2C)cc1	22	0.044	1.1	3
59	Cc1nnc(SCC(=O)Nc2ccc(F)c(F)c2F)s1	-8	x	1.2	x
60	FC(F)(F)c1ccccc1-n1ccnc1	-20	-0.11	x	-36
61	COc1ccc(S(=O)(=O)N(C)CC(=O)NC2CC2)cc1	-2	x	0.7	x
62	COc1ccc(NC(=O)N(C)C[C@H]2OCCCC[C@@H](C)Oc3ccc(NC(=O)NC4CCCCC4)cc3C(=O)N([C@H](C)CO)C[C@@H]2C)cc1	-15	0.41	-0.8	38
63	C[C@H](CO)N1C[C@H](C)[C@H](CN(C)CC2CCCCC2)Oc2ccc(NS(=O)(=O)c3cccs3)cc2CC1=O	-2	-0.082	-0.3	13
64	CCSC1=C(C#N)C(=O)NC(C(C)C)S1 (stereo not drawn)	-17	-0.72	-0.1	-12
65	C[C@H]1CN([C@@H](C)CO)C(=O)Cc2cc(NC(=O)C3CCCCC3)ccc2O[C@H]1CN(C)S(=O)(=O)c1cccs1	-1	-0.25	x	12
66	CC(C)NC(=O)N(C)C[C@H]1OCCCC[C@@H](C)Oc2ccc(NS(=O)(=O)c3cccs3)cc2C(=O)N([C@H](C)CO)C[C@@H]1C	2	0.025	x	-6
67	COC(=O)c1ccc(C(=O)OC)c(NC(=O)COc2ccccc2OC)c1	-25	x	-1.6	x
68	C[C@H](CO)N1C[C@H](C)[C@@H](CN(C)C(=O)Nc2ccc(C(F)(F)F)cc2)Oc2c(NC(=O)C3CC3)cccc2C1=O	-6	-0.6	-0.6	-23
69	COC(=O)COc1cccc(NC(=O)c2ccc(-c3ccccc3)cc2)c1	33	x	-3.4	x
70	CNC[C@H]1Oc2c(NS(=O)(=O)c3ccc(OC)cc3)cccc2C(=O)N([C@@H](C)CO)C[C@H]1C	7	-0.098	-1.8	-45
71	Cc1cc(C(=O)Nc2cccc3c2O[C@H](CN(C)Cc2ccc(C(=O)O)cc2)[C@@H](C)CN([C@@H](C)CO)C3=O)n(C)n1	-8	-0.28	1.9	-17
72	Cc1ccc(Nc2nnc(-c3ccc(C)c(S(=O)(=O)NCC4CCCO4)c3)c3ccccc23)cc1 (stereo not drawn)	-2	-0.32	-1.4	91*
73	C[C@H](CO)N1C[C@H](C)[C@H](CN(C)Cc2ccc(Oc3ccccc3)cc2)Oc2ccc(NC(=O)Cn3cnnn3)cc2CC1=O	2	-0.073	-0.4	-2
74	C[C@@H]1CCCCO[C@@H](CN(C)C(=O)C2CCCCC2)[C@@H](C)CN([C@H](C)CO)C(=O)c2cc(NC(=O)Nc3ccccc3)ccc2O1	-2	-0.1	0.8	-9
75	C[C@]1(O)CC[C@@H]2C(C(=O)O)=CO[C@@H](O[C@@H]3O[C@H](COC(=O)/C=C/c4ccc(O)c(O)c4)[C@@H](O)[C@H](O)[C@H]3O)[C@@H]21	-7	-0.22	-0.4	-24

Not all compounds are listed; the hit share may differ from the screen's.
